Bioassay records: PubChem BioAssay, several laboratories
CBX7 inh: blocks human CBX7 binding to H3K27me3 peptide; O95931; AlphaScreen His6-CBX7 / biotin-H3K27me3 peptide binding; hits give low values; normalised signal (fraction of DMSO) (no concentration beside the values); 1.1% of 66,000 active; AID 1224903; in the data active = normalised signal below about 0.5;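 also: 100 nL library stock added to about 20 µL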
Target sequence (O95931 whole entry, looked up): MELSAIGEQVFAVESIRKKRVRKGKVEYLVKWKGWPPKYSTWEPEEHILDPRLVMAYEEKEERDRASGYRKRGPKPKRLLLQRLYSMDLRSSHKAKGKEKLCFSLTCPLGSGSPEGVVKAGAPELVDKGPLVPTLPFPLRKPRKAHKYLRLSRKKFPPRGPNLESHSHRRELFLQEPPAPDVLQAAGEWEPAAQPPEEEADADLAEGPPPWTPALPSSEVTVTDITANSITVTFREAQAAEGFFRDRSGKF
CBX7 inh z-score: recorded beside CBX7 inh, whose call it bears; z-score; measured here: z-score of CBX7 signal; some inactives read as strong as hits; reference of the scale not given here;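 same signal on another scale; lower means less binding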
* marks the source's active call; other numbers are inactive results; & = joins results of further samples. These rows are one share of the data; the hit share may differ from the screen's.

SMILES	CBX7 inh	CBX7 inh z-score
COC(CNC(=O)Cn1nc(-c2ccccc2)c2cc(Cl)ccc21)OC	0.96	-0.46
Fc1ccc(Cn2c(COc3ccccc3)nc3ccccc32)cc1	1	0.03
Cc1cc(C)c(C)c(S(=O)(=O)NCCc2c(C)[nH]c3ccccc23)c1C	0.77	-6.4
COc1ccc(OC)c(N2C(=O)CC(Cc3ccc(C)cc3)C2=O)c1 (stereo not given)	0.94	-0.71
CC1(C)CC(=O)c2cc(OCC(=O)NCCCN3CCN(c4ccccc4F)CC3)ccc2O1	0.96	-0.71
Cc1cc(C(=O)Nc2cccc(Cl)c2C)n(-c2ccccc2)n1	1.1	0.43
Cc1[nH]nc(-c2ccc(O)c(C)c2O)c1Oc1ccccc1	0.64	-5.7
CCCCC(=O)N1CC(=O)Nc2ccc(Cl)cc2C1c1ccccc1 (stereo not given)	0.85	-2.5
COc1cc(OC)c(-n2cc(-c3ccc(C)cc3)[nH]c2=O)cc1Cl	0.98	-0.53
Cc1cc(NS(=O)(=O)c2ccc(N3CCCC3=O)cc2)no1	1.2	1.8
O=C(Nc1ccc2c(c1)ncn2-c1ccccc1)c1ccccc1	1	0.41
CC1CCCCC1NS(=O)(=O)c1ccc2nc(-c3ccccc3)[nH]c2c1 (stereo not given)	0.96	-0.05
CC1(C)CC(=O)N(CC(=O)NCC2CCCO2)c2ccccc2S1(=O)=O (stereo not given)	1	0.26
COCCn1nnc2c(=O)[nH]c(C(=O)NCc3cccc(Cl)c3)nc21	1.1	2.2
COc1ccc(-c2cc(-c3ccccc3)n[nH]2)c(O)c1	0.84	-6.6
COc1ccc(Nc2cc(C(=O)NCC3COc4ccccc4O3)c3ccccc3n2)cc1 (stereo not given)	1	0.01
Cc1cccc(N2CC(c3nc4ccccc4n3CC(C)C)CC2=O)c1C (stereo not given)	1.1	0.32
CCCNC(=O)c1ccc2c(c1)ncn2-c1ccccc1OCC	0.87	-1.6
COc1cccc(-n2nc(C(=O)Nc3ccc(OC)cc3OC)c3ccccc3c2=O)c1	1.1	0.79
Clc1ccccc1-c1nc(-c2cccnc2)no1	1.3	2.9
Cc1cc(N2CCCCC2)nc2ccc(NC(=O)CCC(=O)NCc3ccc(F)cc3)cc12	1	0.61
O=C1CN(C(=O)CCC2CCCC2)C(c2ccc(F)cc2)c2cc(Cl)ccc2N1 (stereo not given)	0.79	-5.3
COc1cccc(-c2nc(CS(=O)(=O)CC(=O)Nc3ccccc3Cl)c(C)o2)c1	1	0.17
Cc1ccc(NC(=O)C2c3ccccc3C(=O)N3CCc4ccccc4C23)c(Br)c1 (stereo not given)	0.93	-1.2
CC(C)(C)c1ccc(C(=O)N2CC(=O)Nc3ccc(F)cc3C2c2ccc(F)cc2)cc1 (stereo not given)	0.88	-3.2
Other records
SMILES	CBX7 inh	CBX7 inh z-score
CC1(C)CC(=O)N(CC(=O)NCc2cccs2)c2ccccc2S1(=O)=O	1	1.2
CCOC(=O)N1CCc2c(sc(NCc3cccc(F)c3)c2C(=O)Nc2cc(Cl)ccc2OC)C1	0.92	-4.2
COc1ccc(CNC(=O)CCc2nc(-c3ccccc3F)no2)c(OC)c1	1	0.51
CC(=O)Nc1cccc(Oc2ccc3c(c2)C(=O)N(c2ccc(C)cc2C)C3=O)c1	0.99	-0.0074
O=C1N(c2cccc(C(F)(F)F)c2)C2CS(=O)(=O)CC2N1c1ccccc1Cl (stereo not given)	1	0.44
Cc1n[nH]c(C)c1C(=O)CC1(O)C(=O)Nc2ccccc21 (stereo not given)	1	0.055
Cc1ccc(-c2nn(C)c(=O)c3ccccc23)cc1S(=O)(=O)N1CCC(C)CC1	0.79	-2.7
O=C(c1csc2c1CCCC2)N1CCOCC1	1	1.1
Cc1ccc(NC(=O)c2cnc3scc(C)n3c2=O)c(C)c1	1	1.5
CC1CCN(Cc2ccc(NC(=O)CC3Oc4ccccc4NC3=O)cc2)CC1 (stereo not given)	1.1	0.65
COc1cccc(-c2cc(C(=O)N3CCN(Cc4ccccc4)CC3)no2)c1	0.93	-0.77
CC1(C(=O)NCc2cccnc2)CCC(=O)N1CCc1ccccc1 (stereo not given)	1.1	0.9
CCc1ccc(N2CC(c3nc4ccccc4n3CCOc3ccccc3OC)CC2=O)cc1 (stereo not given)	0.91	-2.1
O=C(Nc1ccc(F)cc1)Nc1cnc2ccccc2c1	1	0.067
COc1ccc2nc(NC(=O)c3cc4c(s3)-c3ccccc3OC4)sc2c1	1	0.79
CCn1c(C(=O)N2CCC(C(=O)N3CCN(c4cccc(C)c4C)CC3)CC2)cc2sccc21	0.51	-2.2
Cc1ccc(CCNC(=O)CSCc2nc(-c3ccc(C)cc3)oc2C)cc1	1.3	4.8
CCOc1ccc(C(=O)c2cn(Cc3ccc(C)cc3)c3ccccc3c2=O)cc1	0.58	-1.5
CCN(c1cccc(C)c1)C(C(=O)Nc1ccc(C(C)C)cc1)c1ccccc1 (stereo not given)	1.1	0.46
COc1cc2c(cc1OC)C(c1ccc(OCc3ccccc3)c(OC)c1)CC(=O)N2 (stereo not given)	0.85	-0.6
Cc1ccc2nc(Nc3nc(O)cc(=O)[nH]3)nc(C)c2c1	0.83	-3.4
COc1ccc(-c2csc(Nc3ncccc3C)n2)cc1C	0.82	-4.8
O=C(Cc1cccs1)NCc1ccccc1Br	1	0.38
Cc1ccc(S(=O)(=O)NCc2ccc(C(=O)NCCc3ccc(S(N)(=O)=O)cc3)cc2)cc1	1	0.57
Cc1ccc(Nc2nnc(-c3ccc(C)c(S(=O)(=O)NC(C)(C)C)c3)c3ccccc23)c(C)c1	0.83	-3.2

Of the compounds above, 6 contain a thiophene ring, fused or not:
SMILES	CBX7 inh	CBX7 inh z-score
CC1(C)CC(=O)N(CC(=O)NCc2cccs2)c2ccccc2S1(=O)=O	1	1.2
CCOC(=O)N1CCc2c(sc(NCc3cccc(F)c3)c2C(=O)Nc2cc(Cl)ccc2OC)C1	0.92	-4.2
O=C(c1csc2c1CCCC2)N1CCOCC1	1	1.1
COc1ccc2nc(NC(=O)c3cc4c(s3)-c3ccccc3OC4)sc2c1	1	0.79
CCn1c(C(=O)N2CCC(C(=O)N3CCN(c4cccc(C)c4C)CC3)CC2)cc2sccc21	0.51	-2.2
O=C(Cc1cccs1)NCc1ccccc1Br	1	0.38

Continued:
SMILES	CBX7 inh	CBX7 inh z-score
CCN1C(=O)c2ccccc2S(=O)(=O)c2ccc(C(=O)NCc3ccc(C)cc3)cc21	1	0.1
Cc1nnnn1-c1nc(-c2ccc(Cl)cc2)cc(C(F)(F)F)n1	0.92	-1.3
COCCn1c(=O)[nH]c2cc(C(=O)N3CCN(Cc4ccc5c(c4)OCO5)CC3)ccc2c1=O	0.99	-0.35
O=C1CCc2cc(S(=O)(=O)N3CCC(C(=O)Nc4cccc(F)c4)CC3)ccc2N1	1.1	2.5
Cc1c(NC(=O)COc2ccc(Br)cc2)cccc1-c1nc2ncccc2o1	1.1	2.6
Fc1ccc(N2CCN(Cc3nc(-c4ccccc4)no3)CC2)cc1	0.83	-1.6
Cc1ccc(Cc2cnc(NC(=O)COc3cccc(C(F)(F)F)c3)s2)cc1	1.1	0.085
CC(C)(C)OC(=O)N1CCC(c2c(C(=O)O)cnn2-c2ccccc2)CC1	0.84	-2.3
CCCn1c(C(O)c2ccc(OCc3ccccc3)c(OC)c2)nc2ccccc21 (stereo not given)	0.8&0.69	-3.5&-1.5
c1ccc(Sc2ncnc3c2oc2ccccc23)cc1	1.1	2.8
CCOc1ccccc1OCC(=O)Nc1ccc(S(=O)(=O)Nc2nccs2)cc1	0.95	-1.6
Cc1ccc(Cc2c(C)nc3c(C(=O)N(C)CCc4ccccn4)cnn3c2C)cc1	0.96	-1.1
CCOC(=O)c1ccccc1NC(=O)c1cccc2c1C(=O)N(CCOC)C2	1.1	2.2
Cc1oc(-c2ccccc2Cl)nc1CS(=O)(=O)CC(=O)NC(C)CCc1ccccc1 (stereo not given)	0.97	-0.89
Cc1ccc(C)c2[nH]c(=O)c(CCNC(=O)c3ccc(C(C)(C)C)cc3)cc12	1	0.27
O=C(C1CC1)N1CCc2cc(S(=O)(=O)N3CCOCC3)ccc21	0.84	-0.65
COc1cccc(C(=O)N2CCCC(c3ccccc3)C2)c1 (stereo not given)	0.9	-2
COc1cccc(/C=C/c2nc3ccccc3c(=O)n2-c2ccc(C)c(C)c2)c1OC	1.1	2.5
Cc1ccc2c(c1)C(c1ccc(F)cc1)N(C(=O)C1CCCC1)CC(=O)N2 (stereo not given)	0.82	-3.3
O=C(NCC1CCCO1)c1nn2c(C(F)(F)F)c3c(nc2c1Cl)-c1ccccc1CC3 (stereo not given)	1	0.45
COc1ccc(-c2c(-c3ccccc3)oc3ncnc(C)c23)cc1	0.79	-2.3
C=CCN1C(=O)c2ccccc2Sc2ccc(C(=O)N3CCOCC3)cc21	1	0.91
O=C(Nc1ccc(F)cc1F)c1csc2c1CCCCC2	1	0.89
O=C(NCCCN1CCOCC1)C1CCC(=O)N1C1CCCC1 (stereo not given)	1	1.5
CCCCN(CCCC)S(=O)(=O)c1ccc(NC(=O)c2c(-c3ccccc3)noc2C)cc1	1.1	2.4
Going on with the list.
SMILES	CBX7 inh	CBX7 inh z-score
CCc1ccccc1NC(=O)c1cnn(-c2ccccc2)c1C1CCN(C(=O)OC(C)(C)C)CC1	0.91	-1.6
COCCCN(C)C1CCN(C(=O)Nc2ccc(F)cc2)CC1	0.74	-1
COc1ccccc1-n1cnc2cc(NC(=O)c3ccc(C)cc3)ccc21	0.93&1	-3.8&0.066
CCOC(=O)c1nc(Nc2ccc(OC)cc2Cl)c2ccccc2n1	0.73	-2.8
O=C1c2ccccc2S(=O)(=O)N1c1ccc(F)cc1	1	1.3
CCCN(C(=O)Cc1c(C(=O)O)n(CC)c2ccccc12)c1cccc(C)c1	1	0.73
Clc1cccc(-n2ncnc2-c2ccc(Br)cc2)c1	1.2	2.1
CCc1ccc(-c2nc3ccc(Br)cc3c(C(=O)O)c2C)s1	0.97	-0.67
CC1CCN(S(=O)(=O)c2ccc3c(c2)N(CC(=O)NCc2ccc(F)cc2)C(=O)CO3)CC1	1	1.4
COc1ccc(CSc2nnnn2-c2ccc(F)c(Cl)c2)cc1	0.91	-2.5
Cc1cccc(-c2nc(Oc3ccc(C#N)cc3)c3ccccc3n2)c1	1.1	0.077
Cc1ccc(-c2nc(CS(=O)(=O)CC(=O)NCCc3ccccc3)c(C)o2)cc1	0.9	-0.21
CCC(Cc1ccccc1)NC(=O)c1cc2c(s1)CS(=O)(=O)C2 (stereo not given)	1.1	1.8
COc1ccc(-n2nc(C(=O)Nc3cc(C)ccc3OC)c3ccccc3c2=O)cc1	1.1	1.7
COc1ccc(S(=O)(=O)Nc2cc(Cl)ccc2Cl)c2cccnc12	1.1	1.4
COc1ccc(-n2c(C)nc3c(cnn3-c3ccc(F)cc3)c2=O)cc1Cl	0.96	-0.56
CCCNC(=O)Cn1cnc2sc(C(=O)NCCN3CCOCC3)c(C)c2c1=O	0.96	-1.2
c1ccc(-c2cn3c4ccccc4nc3n2CCN2CCCCC2)cc1	0.94	-1.8
CCOC(=O)c1cnc2ccc(OCC)cc2c1Nc1ccccc1C	0.89	-1.3
COc1ccc2nc(N3CCC(C(=O)NCCCN4CCN(C)CC4)CC3)sc2c1	0.99	-0.12
CCOc1ccc(NC(=O)c2c(NC(=O)c3ccc(F)cc3)sc3c2CCC3)cc1	0.83	-0.23
Cc1cccc(OCc2nnc(-c3ccc(F)cc3)o2)c1	1.2	0.78
COc1cccc(C(=O)Nc2cccc(-c3nc4ccccc4o3)c2)c1	1	1.6
O=C(Cn1ncc2c1-c1ccccc1OC2)N1CCc2ccccc2C1	1	-0.02
COc1ccc(-c2c(C)nn3c(NCc4ccc(F)cc4)cc(C)nc23)cc1OC	0.89	-2.8

The closing two records of the part before lead into the next:
SMILES	CBX7 inh	CBX7 inh z-score
O=C(Cn1ncc2c1-c1ccccc1OC2)N1CCc2ccccc2C1	1	-0.02
COc1ccc(-c2c(C)nn3c(NCc4ccc(F)cc4)cc(C)nc23)cc1OC	0.89	-2.8
CCCN(CCC)CCCNC(=O)CC(C(=O)N1CCc2ccccc21)n1ccnc1 (stereo not given)	1	0.25
CCN(CC)C(=O)C1c2cc(OC)c(OC)cc2C(=O)N(C)C1c1ccccc1F (stereo not given)	1	0.77
OC(Cn1nnc2ccccc21)Cn1c(C(F)(F)F)nc2ccccc21 (stereo not given)	0.9	-1.3
COc1ccc(CCN2C(=O)C(Oc3ccccc3C)C2c2ccc(Cl)c(Cl)c2)cc1OC (stereo not given)	0.77	-0.81
COc1ccc(N2CCN(c3oc(COc4ccccc4F)nc3C#N)CC2)cc1	0.55	-2.8
O=C(Nc1ccc(Cl)cc1)C1CCN(S(=O)(=O)c2cccnc2)CC1	1	0.58
COc1ccccc1CNC(=O)c1ccc2c(c1)ncn2-c1ccc(F)cc1F	1	0.71
CC1CCCCC1NC(=O)C1CCCN(S(=O)(=O)c2cnc[nH]2)C1 (stereo not given)	1	0.17
Cc1cccc(OCc2nc(-c3ccc(OCC(N)=O)cc3)no2)c1	1	-0.037

Taken from above:
Reading for O=C(Nc1ccc(Cl)cc1)C1CCN(S(=O)(=O)c2cccnc2)CC1 under CBX7 inh z-score: 0.58
Reading for Cc1cccc(OCc2nc(-c3ccc(OCC(N)=O)cc3)no2)c1 under CBX7 inh: 1
